High-throughput results from PubChem BioAssay.
VACV Venus inh: inhibitors of vaccinia virus (Venus reporter); Vaccinia virus Venus reporter expression, fluorescence; Potency, µM (top dose mostly 36.5 µM), for inactives: top-dose activity change, negative = inhibition, usual class: inhibitors; actives 0.46% (n = 330,000); AID 720580; active means well fitted inhibition curve with a large enough effect; inconclusive means small, poorly fitted or top-dose-only effect; inactive means no such curve, though single readings can be large or run the other way; tested in A549 cells; also: nearly all actives have a fitted effect of over 30% in size; inactives centre near -10
Vaccinia mCherry: vaccinia inhibition (mCherry reporter); Potency, µM (series often up to 36.5 µM), for inactives: at the top dose activity change, negative = inhibition, actives largely listed as inhibitors; actives 0.63% (n = 310,000); AID 720579; Vaccinia virus mCherry reporter infection, fluorescence; about a quarter of the inactives have no number; active = well fitted inhibition curve with a large enough effect; inconclusive = small, poorly fitted or top-dose-only effect; inactive = no such curve, though single readings can be large or run the other way; tested in A549 cells; also: nearly all actives have a fitted effect of over 35% in size; inactives centre near -10
* = called active by the depositor; i = inactive; ? = inconclusive; . = no result given; [ ] = another dose, or the depositor's remark. % is scaled to controls: 0 for no effect and ±100 for the full control effect; potency is read from the fitted curve at half-maximal effect.

> CCOCc1c(C(=O)Nc2cc(OCC)c(N3CCOCC3)cc2OCC)oc2ccccc12
  VACV Venus inh: -1% | Vaccinia mCherry: 5%
> CCC1NC(=O)c2cccnc2-n2c1nc1ccc(C)cc1c2=O (stereo not drawn)
  VACV Venus inh: -9% | Vaccinia mCherry: i
> Cc1cc(C)n(-c2ccccc2[N+](=O)[O-])n1
  VACV Venus inh: -9% | Vaccinia mCherry: i
> O=C1Nc2cc(Cl)cnc2N2CCCC12 (stereo not drawn)
  VACV Venus inh: -3% | Vaccinia mCherry: 16%
> Fc1ccc(CO/N=C/C2=C(Cl)c3ccccc3CC2)cc1
  VACV Venus inh: -14% | Vaccinia mCherry: .
> CCOc1ccc(-n2c(SCC(=O)NCc3ccccc3)nc3n[nH]c(C)c3c2=N)cc1
  VACV Venus inh: -9% | Vaccinia mCherry: -15%
> COc1ccc(CNc2nc3ccccc3n2CCN2CCCCC2)cc1
  VACV Venus inh: 0% | Vaccinia mCherry: -3%
> CCN(CC)S(=O)(=O)c1cc(NC(=O)Cc2ccsc2)ccc1C
  VACV Venus inh: ? | Vaccinia mCherry: ?
> CC1CCCN(CCC(=O)c2ccccc2)C1 (stereo not drawn)
  VACV Venus inh: -11% | Vaccinia mCherry: -17%
> Cc1nc2c(C)cccc2cc1C(=O)N/N=C/c1cccnc1
  VACV Venus inh: 0% | Vaccinia mCherry: i

Entries of single compounds from above. Screens in order: VACV Venus inh	Vaccinia mCherry
Cc1cc(C)n(-c2ccccc2[N+](=O)[O-])n1 as listed: -9%	i
CCC1NC(=O)c2cccnc2-n2c1nc1ccc(C)cc1c2=O (stereo not drawn) as listed: -9%	i
CCOCc1c(C(=O)Nc2cc(OCC)c(N3CCOCC3)cc2OCC)oc2ccccc12 as listed: -1%	5%
CC1CCCN(CCC(=O)c2ccccc2)C1 (stereo not drawn) as listed: -11%	-17%
O=C1Nc2cc(Cl)cnc2N2CCCC12 (stereo not drawn) as listed: -3%	16%

Returning to the listing, repeating the two entries before the break.
> CC1CCCN(CCC(=O)c2ccccc2)C1 (stereo not drawn)
  VACV Venus inh: -11% | Vaccinia mCherry: -17%
> Cc1nc2c(C)cccc2cc1C(=O)N/N=C/c1cccnc1
  VACV Venus inh: 0% | Vaccinia mCherry: i
> COC(=O)c1ccc(NC(=S)NCCc2ccccc2)cc1
  VACV Venus inh: -9% | Vaccinia mCherry: -13%
> Cc1ccc(NC(=O)CSCC(=O)N(C)CCOc2ccc(Cl)cc2)cc1
  VACV Venus inh: -6% | Vaccinia mCherry: i
> Cn1cnc([N+](=O)[O-])c1Sc1nc2ccccc2[nH]1
  VACV Venus inh: -24% | Vaccinia mCherry: ?
> FC(F)(F)c1cc(Cl)c2nnc(-c3ccccn3)n2c1
  VACV Venus inh: -10% | Vaccinia mCherry: i
> O=C(Nc1cccc(C(F)(F)F)c1)C(Sc1n[nH]c(=O)[nH]c1=O)c1ccccc1 (stereo not drawn)
  VACV Venus inh: -5% | Vaccinia mCherry: -2%
> CC(CC(=O)Nc1ccccc1C(F)(F)F)c1ccccc1 (stereo not drawn)
  VACV Venus inh: -17% | Vaccinia mCherry: -4%
> Cn1c(=O)c(-c2ccccc2)cc2ccccc21
  VACV Venus inh: -3% | Vaccinia mCherry: -8%
> Cn1nc(C(=O)NCc2ccccc2CN2CCCC2)c2ccccc2c1=O
  VACV Venus inh: -3% | Vaccinia mCherry: -11%
> O=C(Cc1ccccc1)Nc1c(C(=O)c2ccccc2)oc2ccccc12
  VACV Venus inh: -3% | Vaccinia mCherry: -8%
> COc1ccccc1NC(=O)Cn1c(=O)n(Cc2ccco2)c(=O)c2cccnc21
  VACV Venus inh: -1% | Vaccinia mCherry: -20%

> CCOc1ccc(N2CC(C(=O)N3CCc4ccccc4C3)CC2=O)cc1 (stereo not drawn)
  VACV Venus inh: 8% | Vaccinia mCherry: .
> CC(C)NC(=O)CSc1nc(N)c(-c2ccccc2)c(=O)[nH]1
  VACV Venus inh: -5% | Vaccinia mCherry: i
> Cc1cc(C)n2nc(SCc3ccccc3F)nc2n1
  VACV Venus inh: -10% | Vaccinia mCherry: -4%
> Cc1ccc(C2CC(c3ccco3)=NN2S(C)(=O)=O)cc1 (stereo not drawn)
  VACV Venus inh: 4% | Vaccinia mCherry: -10%
> Cc1ccc(NC(=O)/C(C#N)=C(\N)C(Cl)(Cl)Cl)nc1
  VACV Venus inh: -10% | Vaccinia mCherry: -21%
> CC(C)CC(=O)Nc1ccccc1Oc1ccccc1
  VACV Venus inh: 12% | Vaccinia mCherry: 6%
> CCOc1ccc(NC(=S)Nc2ccc(OC)cc2)cc1
  VACV Venus inh: 0% | Vaccinia mCherry: -6%
> COc1cccc(C(=O)/C=C2\NCCc3cc(OC)c(OC)cc32)c1
  VACV Venus inh: -13% | Vaccinia mCherry: -7%
> Nc1[nH]c(=O)nc2snnc12
  VACV Venus inh: 3% | Vaccinia mCherry: i
> CC(CCCC(C)(C)O)NC(=O)c1ccc(OC2CCN(C(=O)C3CC3)CC2)cc1 (stereo not drawn)
  VACV Venus inh: -6% | Vaccinia mCherry: 3%

> CN(CCCN(Cc1ccc(Cl)cc1)c1ccc(Br)cn1)C(=S)NCCCc1cnc[nH]1
  VACV Venus inh: -19% | Vaccinia mCherry: 4%
> CC(=O)Nc1ccc(N=Cc2nc(-c3ccc(C)cc3)oc2O)cc1
  VACV Venus inh: 4% | Vaccinia mCherry: -1%
> CCOC(=O)C1=C(N)OC2=C(C(=O)CCC2)C1c1ccc2c(c1)OCO2 (stereo not drawn)
  VACV Venus inh: -9%[7.34 µM] | Vaccinia mCherry: -20%[7.34 µM]
> Cc1ccc(OCC(=O)N/N=C/c2ccccc2)c([N+](=O)[O-])c1
  VACV Venus inh: -7% | Vaccinia mCherry: -9%
> CCN(C(=O)c1cnc(N2CCOCC2)c2ccccc12)c1cc(C)ccc1C
  VACV Venus inh: -3% | Vaccinia mCherry: -14%
> C[C@H]1CN([C@@H](C)CO)C(=O)CCCn2cc(nn2)CO[C@@H]1CN(C)S(=O)(=O)c1ccc(Oc2ccccc2)nc1
  VACV Venus inh: -8% | Vaccinia mCherry: -7%
> COc1ccc(-c2nc(CS(=O)CC(=O)NCc3ccco3)c(C)o2)cc1 (stereo not drawn)
  VACV Venus inh: -1% | Vaccinia mCherry: -7%
> COc1cc2c(-c3cccc(Cl)c3)nc3c(c(C)nn3-c3ccccc3)c2cc1OC
  VACV Venus inh: 3% | Vaccinia mCherry: -12%
> CS(=O)(=O)N(CC(=O)N1CCCC1)c1ccccc1Br
  VACV Venus inh: 4% | Vaccinia mCherry: i
> COC(=O)c1[nH]c2ccc(C)cc2c1NC(=O)CN1CCCc2ccccc21
  VACV Venus inh: -26% | Vaccinia mCherry: ?

> COc1ccc(C(=O)COC(=O)CCNS(=O)(=O)c2ccc(NC(C)=O)cc2)c(OC)c1
  VACV Venus inh: -8% | Vaccinia mCherry: i
> CC(=O)Nc1ccc(S(=O)(=O)Nc2ccccc2N2CCOCC2)cc1Cl
  VACV Venus inh: -8% | Vaccinia mCherry: -3%
> O=S(=O)(c1ccc(Cl)cc1)c1nnn2c1nc(NCc1cccs1)c1sccc12
  VACV Venus inh: -20% | Vaccinia mCherry: i
> CC(C)CCN(C(=O)CNC(=O)c1cccs1)C(C(=O)NC1CCCCC1)c1cccnc1 (stereo not drawn)
  VACV Venus inh: 2% | Vaccinia mCherry: i
> Cc1cc(=O)[nH]c(SCC(=O)Nc2ccc(Br)cc2)c1C#N
  VACV Venus inh: -28% | Vaccinia mCherry: ?
> O=[N+]([O-])c1ccc2c(c1)c1ccccc1n2CCO
  VACV Venus inh: -2% | Vaccinia mCherry: i
> F[B-](F)(F)COc1ccccc1
  VACV Venus inh: -9% | Vaccinia mCherry: 13%
> S=C(NCCc1ccccc1)N1CCn2cccc2C1c1cccnc1 (stereo not drawn)
  VACV Venus inh: -2% | Vaccinia mCherry: -10%
> CCCCNC(=O)C(=O)N/N=C/c1cccc(Br)c1
  VACV Venus inh: -21% | Vaccinia mCherry: -26%
> COc1ccc(S(=O)(=O)Oc2cc(C(=S)N3CCOCC3)ccc2OC)cc1
  VACV Venus inh: -5% | Vaccinia mCherry: -6%

Two of these compounds in another layout.
smiles	VACV Venus inh	Vaccinia mCherry
CC(C)CCN(C(=O)CNC(=O)c1cccs1)C(C(=O)NC1CCCCC1)c1cccnc1 (stereo not drawn)	2%	i
O=S(=O)(c1ccc(Cl)cc1)c1nnn2c1nc(NCc1cccs1)c1sccc12	-20%	i

(continued)
> CCc1ccc(-n2c(C)nc3cc(C(=O)NCCc4ccccc4)ccc32)cc1
  VACV Venus inh: -8% | Vaccinia mCherry: -8%
> COc1ccc(CCNC(=O)C(C(=O)c2ccccc2)n2cc(Cl)ccc2=O)cc1OC (stereo not drawn)
  VACV Venus inh: -9% | Vaccinia mCherry: i
> CC1CCCCC1NC(=O)CSc1ccsc1[N+](=O)[O-] (stereo not drawn)
  VACV Venus inh: -13% | Vaccinia mCherry: -2%
> O=C(O)CSc1cnc2ccccc2n1
  VACV Venus inh: -8% | Vaccinia mCherry: .
> COc1ccc2c(COC(=O)[C@H](C)NS(=O)(=O)c3ccccc3F)cc(=O)oc2c1
  VACV Venus inh: -6% | Vaccinia mCherry: i
> COc1ccc(Cl)cc1NC(=O)C1CCCN(c2ncnc3onc(C)c23)C1 (stereo not drawn)
  VACV Venus inh: -11% | Vaccinia mCherry: -22%
> CCCCOC(=O)CCCc1ccc([N+](=O)[O-])cc1[N+](=O)[O-]
  VACV Venus inh: -3% | Vaccinia mCherry: i
> COc1ccc(NS(=O)(=O)c2ccc3[nH]c4c(c3c2)CCCCC4)cc1
  VACV Venus inh: -26% | Vaccinia mCherry: -4%
> O=C(Cn1cc(S(=O)(=O)c2ccc(F)cc2)c(=O)c2cc3c(cc21)OCO3)Nc1ccccc1
  VACV Venus inh: -4% | Vaccinia mCherry: -2%
> Cc1ccccc1CSc1nnc(-c2cccnc2)n1N
  VACV Venus inh: -1% | Vaccinia mCherry: .

> O=C1CCCC(O)=C1N=Nc1cccc(S(=O)(=O)N2CCOCC2)c1
  VACV Venus inh: -8% | Vaccinia mCherry: -25%
> Cc1cc(C)cc(NC(=O)Cn2c(=O)n(C(C)C)c(=O)c3oc4ccccc4c32)c1
  VACV Venus inh: -4% | Vaccinia mCherry: -5%
> CS(=O)(=O)N(Cc1cccc(CN(C(C(=O)O)c2ccccc2)S(C)(=O)=O)c1)C(C(=O)O)c1ccccc1 (stereo not drawn)
  VACV Venus inh: -7% | Vaccinia mCherry: i
> COc1ccc(OC)c(NC(=O)N2CCN(S(=O)(=O)c3ccc4c(ccn4C)c3)CC2)c1
  VACV Venus inh: -7% | Vaccinia mCherry: -12%
> O=C(NC(=S)Nc1ccccn1)c1cccc([N+](=O)[O-])c1
  VACV Venus inh: -12% | Vaccinia mCherry: -14%
> CCc1ccc(CNCCNC(=O)c2ccco2)cc1
  VACV Venus inh: -11% | Vaccinia mCherry: -9%
> Cc1cc2c(cc1S(=O)(=O)NCCc1ccc(Cl)cc1)OCC(=O)N2
  VACV Venus inh: -26% | Vaccinia mCherry: -13%
> COC(=O)c1cn(-c2nc(C)c3c(n2)CCC3)nn1
  VACV Venus inh: 3% | Vaccinia mCherry: -2%

Part of the list above in order of length of the SMILES, high to low.
> COc1ccc(OC)c(NC(=O)N2CCN(S(=O)(=O)c3ccc4c(ccn4C)c3)CC2)c1
  VACV Venus inh: -7% | Vaccinia mCherry: -12%
> Cc1cc(C)cc(NC(=O)Cn2c(=O)n(C(C)C)c(=O)c3oc4ccccc4c32)c1
  VACV Venus inh: -4% | Vaccinia mCherry: -5%
> Cc1cc2c(cc1S(=O)(=O)NCCc1ccc(Cl)cc1)OCC(=O)N2
  VACV Venus inh: -26% | Vaccinia mCherry: -13%
> O=C1CCCC(O)=C1N=Nc1cccc(S(=O)(=O)N2CCOCC2)c1
  VACV Venus inh: -8% | Vaccinia mCherry: -25%
> O=C(NC(=S)Nc1ccccn1)c1cccc([N+](=O)[O-])c1
  VACV Venus inh: -12% | Vaccinia mCherry: -14%
